Bioassay records as filed in PubChem BioAssay.
Yeast_UUG_start – modulators of yeast start codon fidelity, primary screen, whole organism, S. cerevisiae, single point, plate reader; S. cerevisiae UUG-firefly luciferase reporter, luminescence/redox ratio; activity score, % at 18.7 µM; hit rate 0.13% among 350,000;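 active means replicate mean at a twofold rise or more, about +100% in these data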;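 further: firefly luciferase made from a UUG start codon reports start codon fidelity; reporter light over untreated wells divided by growth signal over untreated wells; some hits fall short of that in this replicate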
HIV_Env_fusion – inhibitors of HIV-1 Env-driven cell-cell fusion, primary screen, HeLa-JRFL effector, CEM21 target cells, luciferase | inhibition, % at 12.3 µM | hit rate 1.1% among 360,000 | AID 651610, 2012;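 active means mean replicate inhibition score of at least 50 and every replicate individually at or above 50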;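 further: 0% = plate neutral controls and 100% = maraviroc near 300 nM; one replicate is shown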
* hit, by the source's call; [ ] = dose if it differs, or a comment.

SMILES Yeast_UUG_start HIV_Env_fusion
Cc1ccc(S(=O)(=O)N[C@H]2C=C[C@H](CC(=O)NCc3ccncn3)O[C@H]2CO)cc1 -12 2[16.7_µM]
COc1ccc(CN(C)C[C@H]2Oc3ccc(NC(=O)Nc4c(C)noc4C)cc3C(=O)N([C@@H](C)CO)C[C@H]2C)cc1 -21 1[16.7_µM]
C[C@@H]1CCCCO[C@@H](CN(C)Cc2ccc(C(F)(F)F)cc2)[C@@H](C)CN([C@H](C)CO)C(=O)c2cc(NC(=O)Nc3ccc(F)cc3)ccc2O1 -3 -19[16.7_µM]
C[C@@H]1CN([C@H](C)CO)S(=O)(=O)c2ccc(C#CCN(C)C)cc2O[C@H]1CN(C)S(C)(=O)=O 18 -13[16.7_µM]
CCC(=O)Nc1ccc2c(c1)C(=O)N(C)[C@H]1CC[C@H](CC(=O)NC3CCCC3)O[C@@H]1CO2 -4 5[16.7_µM]
C[C@H](CO)N1C[C@H](C)[C@@H](CN(C)S(=O)(=O)c2ccc(Cl)cc2)OCCCC[C@H](C)Oc2ccc(NC(=O)Nc3cccc4ccccc34)cc2C1=O 2 -84[16.7_µM]
CCCNC(=O)Nc1ccc2c(c1)C(=O)N(C)C[C@@H](OC)[C@H](C)CN(C(C)=O)[C@@H](C)CO2 -9 20[16.7_µM]
COc1ccc(-c2cn(CC[C@H]3CC[C@H](NC(=O)c4cnccn4)[C@H](CO)O3)nn2)cc1 -8 -8[16.7_µM]
C[C@@H]1CN([C@@H](C)CO)C(=O)c2cc(NC(=O)C3CC3)ccc2O[C@H]1CN(C)Cc1ccc(C(=O)Nc2ccccc2N)cc1 -3 17[16.7_µM]
Cc1noc(C)c1S(=O)(=O)N(C)C[C@H]1Oc2ccc(NC(=O)Nc3ccc(C(F)(F)F)cc3)cc2CC(=O)N([C@@H](C)CO)C[C@@H]1C -12 -8[16.7_µM]
C[C@H](CO)N1C[C@H](C)[C@@H](CN(C)C(=O)Nc2cccc3ccccc23)Oc2c(NC(=O)c3cnccn3)cccc2C1=O -12 10[16.7_µM]
COC(=O)C[C@H]1C[C@H]2c3cc(NS(=O)(=O)c4ccccc4)ccc3O[C@H]2[C@H](CO)O1 -7 -2[16.7_µM]
COCC(=O)N(C)C[C@H]1Oc2cc(C3=CCCCC3)ccc2S(=O)(=O)N([C@H](C)CO)C[C@H]1C 6 5[16.7_µM]
Cc1ccc(S(=O)(=O)Nc2ccc3c(c2)C(=O)N([C@@H](C)CO)C[C@@H](C)[C@@H](CN(C)S(=O)(=O)c2ccc(Cl)cc2)OCCCC[C@@H](C)O3)cc1 -3 14[16.7_µM]
O=C(N[C@@H]1CC[C@H](CCn2cc(C3(O)CCCC3)nn2)O[C@@H]1CO)C1CCCC1 -7 -4[16.7_µM]
C[C@@H]1CN([C@H](C)CO)C(=O)Cc2cc(NC(=O)C3CC3)ccc2O[C@H]1CN(C)Cc1ccc2c(c1)OCO2 -1 -7[16.7_µM]
Cc1ccc(S[C@]2(C(=O)NC(C)C)CC(=O)N(C(C)C)[C@@H]2c2ccc(CO)cc2I)cc1 -6 27[16.7_µM]
Cc1noc(C)c1NC(=O)N(C)C[C@@H]1OCCCC[C@H](C)Oc2ccc(NC(=O)NC(C)C)cc2C(=O)N([C@@H](C)CO)C[C@@H]1C -3 -98[16.7_µM]
Cc1ccc(S(=O)(=O)Nc2cccc3c2O[C@@H](CN(C)Cc2ccccc2)[C@H](C)CN([C@H](C)CO)C3=O)cc1 6 8[16.7_µM]
COc1cccc(S(=O)(=O)N(C)C[C@H]2Oc3ncc(C#CC(C)C)cc3C(=O)N([C@@H](C)CO)C[C@@H]2C)c1 -8 -1[16.7_µM]
CCCN(C)C[C@H]1Oc2ncc(C#CC3CC3)cc2C(=O)N([C@H](C)CO)C[C@H]1C 4 11[16.7_µM]
C[C@H](CO)N1C[C@H](C)[C@H](CN(C)Cc2ccc(Oc3ccccc3)cc2)Oc2c(NC(=O)C3CCOCC3)cccc2C1=O 10 5[16.7_µM]
C[C@@H]1CN([C@H](C)CO)C(=O)c2cc(C#Cc3ccccc3F)cnc2O[C@@H]1CN(C)C(=O)C1CCOCC1 17 14[16.7_µM]
CCC(=O)Nc1ccc2c(c1)C(=O)N(C)[C@H]1CC[C@@H](CC(=O)NC3CCCC3)O[C@@H]1CO2 -2 0[16.7_µM]
CN(C)c1ccc2c(c1)[C@H]1C[C@H](CC(=O)NC3CCCC3)O[C@@H](CO)[C@H]1O2 -9 -18[16.7_µM]

Additional entries:
SMILES Yeast_UUG_start HIV_Env_fusion
C[C@H](CO)N1C[C@H](C)[C@H](CN(C)S(=O)(=O)c2ccc(F)cc2)Oc2cc(Br)ccc2S1(=O)=O 2 77*[16.7_µM]
COc1ccc(S(=O)(=O)Nc2ccc3c(c2)C(=O)N([C@H](C)CO)C[C@H](C)[C@@H](CN(C)S(=O)(=O)c2ccc(OC)cc2)OCCCC[C@@H](C)O3)cc1 -6 6[16.7_µM]
COc1cccc(NC(=O)C[C@H]2CC[C@@H]3[C@H](COc4ccc(NC(=O)C5CC5)cc4C(=O)N3C)O2)c1 20 20[16.7_µM]
C[C@H]1CN([C@@H](C)CO)S(=O)(=O)c2ccc(C3=CCCC3)cc2O[C@H]1CN(C)Cc1cncnc1 -9 3[16.7_µM]
C[C@@H]1CN([C@H](C)CO)C(=O)c2cc(NS(=O)(=O)c3ccc(F)cc3)ccc2O[C@H]1CN(C)Cc1ccc(C(=O)O)cc1 9 32[16.7_µM]
C[C@@H]1CN([C@H](C)CO)C(=O)Cc2cc(NS(=O)(=O)c3cn(C)cn3)ccc2O[C@H]1CN(C)Cc1ccc(Oc2ccccc2)cc1 15 6[16.7_µM]
COc1ccccc1-c1ccc2c(c1)O[C@H](CN(C)Cc1ccc3c(c1)OCO3)[C@@H](C)CN([C@H](C)CO)S2(=O)=O -2 16[16.7_µM]
O=C(C[C@H]1C[C@H]2c3cc(NC(=O)NC4CCCCC4)ccc3O[C@H]2[C@@H](CO)O1)NCc1ccccn1 -11 -3[16.7_µM]
C[C@@H]1CN([C@@H](C)CO)C(=O)c2cccc(NS(=O)(=O)c3ccccc3)c2O[C@@H]1CN(C)S(=O)(=O)c1ccc(F)cc1 -8 -1[16.7_µM]
C[C@@H]1CN([C@H](C)CO)C(=O)Cc2cc(NC(=O)Nc3cccc4ccccc34)ccc2O[C@H]1CN(C)C(=O)NC1CCCCC1 2 45[16.7_µM]
CNC[C@@H]1Oc2ncc(C#Cc3ccncc3)cc2C(=O)N([C@H](C)CO)C[C@@H]1C -18 3[16.7_µM]
CC(C)NC(=O)Nc1ccc2c(c1)CC(=O)N([C@H](C)CO)C[C@H](C)[C@@H](CN(C)C(=O)Nc1cccc3ccccc13)O2 1 -8[16.7_µM]
C[C@@H]1CN([C@@H](C)CO)C(=O)c2cc(/C=C/c3ccccc3)cnc2O[C@@H]1CN(C)C(=O)c1ccccc1 -2 10[16.7_µM]
C[C@H](CO)N1C[C@H](C)[C@@H](CN(C)Cc2ccccc2)Oc2ccc(NS(=O)(=O)c3ccc(F)cc3)cc2CC1=O -1 -1[16.7_µM]
Cc1ccccc1S(=O)(=O)N1C[C@H](O)COC[C@@H]2O[C@H](CC(=O)N3CCN(C)CC3)CC[C@H]21 -19 -5[16.7_µM]
COc1ccc(NC(=O)N(C)C[C@H]2OCCCC[C@H](C)Oc3ccc(NC(=O)c4ccncc4)cc3C(=O)N([C@@H](C)CO)C[C@@H]2C)cc1 12 -4[16.7_µM]
C[C@@H]1CN([C@@H](C)CO)S(=O)(=O)c2ccc(Br)cc2O[C@@H]1CN(C)S(C)(=O)=O 10 0[16.7_µM]
Cc1noc(C)c1NC(=O)N[C@@H]1CC[C@H](CC(=O)NCc2ccc(Cl)c(Cl)c2)O[C@H]1CO -12 1[16.7_µM]
Cc1cc(C(=O)Nc2cccc3c2O[C@@H](CN(C)S(=O)(=O)c2ccccc2)[C@@H](C)CN([C@@H](C)CO)C3=O)n(C)n1 16 10[16.7_µM]
CC(C)NC(=O)Nc1ccc2c(c1)C(=O)N([C@H](C)CO)C[C@H](C)[C@H](CN(C)Cc1ccc(Cl)c(Cl)c1)OCCCC[C@H](C)O2 9 6[16.7_µM]
C/C=C/c1cnc2c(c1)C(=O)N([C@@H](C)CO)C[C@H](C)[C@@H](CN(C)C(=O)Nc1cccc(OC)c1)O2 5 -24[16.7_µM]
CC(C)CC#Cc1cnc2c(c1)C(=O)N([C@H](C)CO)C[C@@H](C)[C@H](CN(C)C(=O)C1CCCCC1)O2 0 27[16.7_µM]
C[C@H]1CN([C@@H](C)CO)C(=O)c2cc(NC(=O)Nc3cccc4ccccc34)ccc2O[C@@H]1CN(C)C(=O)Nc1cccc2ccccc12 3 13[16.7_µM]
C[C@@H]1CN([C@@H](C)CO)C(=O)c2cc(NC(=O)Nc3ccc4c(c3)OCO4)ccc2O[C@@H](C)CCCCO[C@H]1CN(C)Cc1ccc(C(F)(F)F)cc1 -2 61*[16.7_µM]
C[C@H](CO)N1C[C@H](C)[C@@H](CN(C)C(=O)Nc2ccc(C(F)(F)F)cc2)OCCCC[C@H](C)Oc2ccc(NC(=O)C3CCCCC3)cc2C1=O 4 14[16.7_µM]

Further entries follow:
SMILES Yeast_UUG_start HIV_Env_fusion
C[C@@H]1CN([C@@H](C)CO)S(=O)(=O)c2ccc(-c3ccncc3)cc2O[C@H]1CN(C)Cc1cncnc1 0 -3[16.7_µM]
COc1ccc(NC(=O)N(C)C[C@H]2OCCCC[C@H](C)Oc3ccc(NC(=O)Nc4cccc5ccccc45)cc3C(=O)N([C@H](C)CO)C[C@H]2C)cc1 8 -21[16.7_µM]
C[C@H](CO)N1C[C@H](C)[C@H](CN(C)S(=O)(=O)c2ccc(Cl)cc2)Oc2ccc(NS(=O)(=O)c3ccc(F)cc3)cc2CC1=O 1 24[16.7_µM]
C[C@H](O)C#Cc1cnc2c(c1)C(=O)N([C@H](C)CO)C[C@H](C)[C@H](CN(C)CC1CC1)O2 -8 -24[16.7_µM]
C[C@@H]1CN([C@H](C)CO)C(=O)c2cc(-c3cccc(F)c3)cnc2O[C@H]1CN(C)Cc1cccc(F)c1 -17 40[16.7_µM]
C[C@@H]1CCCCO[C@H](CN(C)C(=O)CCCN(C)C)[C@@H](C)CN([C@@H](C)CO)C(=O)c2cc(N(C)C)ccc2O1 16 8[16.7_µM]
COCC#Cc1cnc2c(c1)C(=O)N([C@H](C)CO)C[C@H](C)[C@H](CN(C)Cc1ccc(F)cc1)O2 -9 -9[16.7_µM]
O=C(C[C@@H]1C=C[C@H](NC(=O)Nc2ccc(C(F)(F)F)cc2)[C@@H](CO)O1)NCCN1CCCC1 -9 0[16.7_µM]
CCCN(C)C[C@@H]1Oc2ncc(-c3cccc(C(=O)N(C)C)c3)cc2C(=O)N([C@@H](C)CO)C[C@H]1C -1 -12[16.7_µM]
N#C[C@@H]1[C@H](c2ccc(C#CC3CCCCC3)cc2)[C@@H](CO)N1S(=O)(=O)c1ccccc1 -22 -3[16.7_µM]
O=S(=O)(N[C@H]1CC[C@H](CCn2cc(-c3cccc(F)c3)nn2)O[C@H]1CO)c1ccccc1 -7 8[16.7_µM]
C[C@@H]1CCCCO[C@@H](CN(C)C(=O)Nc2cccc3ccccc23)[C@H](C)CN([C@H](C)CO)C(=O)c2cc(N(C)C)ccc2O1 1 -4[16.7_µM]
CO[C@H]1O[C@H](CO)[C@@H](OC(=O)Nc2ccccc2)[C@H](OC(=O)Nc2ccc3c(c2)OCO3)[C@@H]1OC(=O)Nc1ccc2c(c1)OCO2 10 -4[16.7_µM]
O=C(C[C@@H]1C=C[C@H](NC(=O)CN2CCOCC2)[C@@H](CO)O1)NCCc1ccccc1 -7 8[16.7_µM]
C[C@@H]1CN([C@H](C)CO)C(=O)c2cccc(NC(=O)c3ccncc3)c2O[C@H]1CN(C)CC1CCCCC1 -8 93*[16.7_µM]
O=C(C[C@@H]1CC[C@H](NC(=O)c2cccc(F)c2)[C@H](CO)O1)NCc1ccc(Oc2ccccc2)cc1 -10 62*[16.7_µM]

11 structures already listed, ordered by molecular weight, low to high.
SMILES Yeast_UUG_start HIV_Env_fusion
O=C(C[C@@H]1C=C[C@H](NC(=O)CN2CCOCC2)[C@@H](CO)O1)NCCc1ccccc1 -7 8[16.7_µM]
O=S(=O)(N[C@H]1CC[C@H](CCn2cc(-c3cccc(F)c3)nn2)O[C@H]1CO)c1ccccc1 -7 8[16.7_µM]
COCC#Cc1cnc2c(c1)C(=O)N([C@H](C)CO)C[C@H](C)[C@H](CN(C)Cc1ccc(F)cc1)O2 -9 -9[16.7_µM]
CCCN(C)C[C@@H]1Oc2ncc(-c3cccc(C(=O)N(C)C)c3)cc2C(=O)N([C@@H](C)CO)C[C@H]1C -1 -12[16.7_µM]
O=C(C[C@@H]1CC[C@H](NC(=O)c2cccc(F)c2)[C@H](CO)O1)NCc1ccc(Oc2ccccc2)cc1 -10 62*[16.7_µM]
C[C@@H]1CN([C@@H](C)CO)S(=O)(=O)c2ccc(-c3ccncc3)cc2O[C@H]1CN(C)Cc1cncnc1 0 -3[16.7_µM]
C[C@@H]1CN([C@H](C)CO)C(=O)c2cccc(NC(=O)c3ccncc3)c2O[C@H]1CN(C)CC1CCCCC1 -8 93*[16.7_µM]
C[C@@H]1CCCCO[C@H](CN(C)C(=O)CCCN(C)C)[C@@H](C)CN([C@@H](C)CO)C(=O)c2cc(N(C)C)ccc2O1 16 8[16.7_µM]
C[C@@H]1CCCCO[C@@H](CN(C)C(=O)Nc2cccc3ccccc23)[C@H](C)CN([C@H](C)CO)C(=O)c2cc(N(C)C)ccc2O1 1 -4[16.7_µM]
CO[C@H]1O[C@H](CO)[C@@H](OC(=O)Nc2ccccc2)[C@H](OC(=O)Nc2ccc3c(c2)OCO3)[C@@H]1OC(=O)Nc1ccc2c(c1)OCO2 10 -4[16.7_µM]
C[C@H](CO)N1C[C@H](C)[C@H](CN(C)S(=O)(=O)c2ccc(Cl)cc2)Oc2ccc(NS(=O)(=O)c3ccc(F)cc3)cc2CC1=O 1 24[16.7_µM]

The list is partial; count on the stated rates, not on these rows.
